AID504770 = E. coli YBA685 growth inhibition, screen for V. cholerae RctB inhibitors; E. coli YBA685 rctB-dependent plasmid, OD600 growth, 3 h; stronger effect = lower value; z-score (no concentration beside the values); 130,000 compounds, 0.27% hits; AID 504770;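 active = z-score under -2 on both plates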;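 also: wells of about 30 µL received 100 nL stock; score is relative to mean and SD of the test wells; the first replicate is given; strong numbers were not always called active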
Ba CapD inh = CapD enzyme inhibition. purified CapD enzyme, fluorescence intensity read-out; stronger effect = lower value; some hits fall short of the stated cut. z-score (no concentration beside the values). 140,000 compounds, 0.23% hits;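 active = z-score under -4 in either of two replicates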;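 also: stock transfer was 100 nL into about 40 µL; score is relative to mean and spread of the plate; one replicate is shown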
The depositor's hits bear a star; · = no result given; & = joins results of further samples.

Value order – AID504770	Ba CapD inh
> O=C(NCCc1ccccc1)c1cccc(Nc2nc3ccccc3n3nnnc23)c1
→ 0.4	0.28
> c1ccc(CCn2c(-c3cccs3)nc3ccccc32)cc1
→ -0.4	66.1
> CCCN(CC1CC1)C(=O)CSC1=N/C(=C\c2ccco2)C(=O)N1c1ccc(OC(F)F)cc1
→ 0.5	·
> Cc1nc2ccc(C(=O)OCC(=O)c3ccc(Cl)cc3)cc2nc1C
→ -0.35	-0.25
> COc1ccc(C2CC(C(F)(F)F)n3nc(C(=O)NCc4ccco4)c(Br)c3N2)cc1 (configuration not stated)
→ ·	-0.205
> Nc1ncc(Cc2ccc(Cl)cc2Cl)s1
→ -0.15	-0.26
> CC1CCN(C(=O)COC(=O)CCc2nc3ccccc3s2)CC1
→ 0.25	·
> Clc1cccc(CNCc2ccco2)c1
→ 0	-0.055
> COC(=O)CSc1nc(-c2cccc(C)c2)c2c(c1C#N)CCCC2
→ ·	-0.285
> Cc1ccc2c(CC(=O)OC(C)C#N)coc2c1 (configuration not stated)
→ 0	·
> CC(C)C1CC(c2csc(N)n2)CCO1 (configuration not stated)
→ -0.35	·
> CCOc1ccccc1N/C(SCc1ccc(Cl)cc1)=C(/C#N)C(=O)NCc1cccs1
→ ·	0.045
> COc1ccc(S(=O)(=O)N2CCn3c2nc2ccccc23)cc1
→ -0.3	·
> COc1ccc(Oc2ncccc2NC(=O)c2ccco2)cc1
→ 0.25	0.525
> CCS(=O)(=O)c1ccc2c(c1)N=Cc1c(C)nn(Cc3ccc(Cl)cc3)c1O2
→ 0.1	·
> CCOC(=O)Cc1csc(SCc2c(C(=O)OCC)oc3ccccc23)n1
→ -0.3	·
> O=C(CSc1nnc2ccccn12)N1CCOCC1
→ -0.3	-0.54
> C#CCSc1nsc(SCC#C)c1C#N
→ -0.25	-0.29
> COCCCNC(=O)c1cc(S(=O)(=O)N2CCOCC2)ccc1Sc1ccc(Br)cc1
→ ·	0.235
> O=C1c2ccccc2C(Nc2ccccc2)N1c1ccccn1 (configuration not stated)
→ 0.15	0.135
> O=S(=O)(c1ccc(Br)cc1)N1CCc2[nH]ncc2C1
→ -0.85	-0.21
> Cc1ccc(NC(=O)CC(CC(=O)O)c2ccccc2)cc1Cl (configuration not stated)
→ 1.1	0.135
> CC(C)NC(=O)C12CC3CC(C1)CC(C(=O)NC(C)C)(C3)C2
→ 0.45	-0.33
> CCCNC(=O)N1CCC(c2ccc3c(c2)OCO3)CC1
→ 0.1	·
> CC1(C)CCc2cc(/C=N/O)ccc2O1
→ -0.65	-0.305
> O=C(C(c1ccccc1)c1ccccc1)N1CCCC1
→ -0.9	-0.03
> Cc1onc(-c2c(F)cccc2Cl)c1C(=O)Nc1ccc(S(=O)(=O)N2CCOCC2)cc1
→ -0.25	·
> CC1=NN(c2ccccc2)C(=O)C1/C=C1/C(=O)NC(=S)N(c2ccc(C)cc2)C1=O (configuration not stated)
→ ·	-1.98
> CCOc1ccc(N(Cc2cccc3ccccc23)C(=O)c2ccco2)cc1
→ -0.45	0.015
> O=C(CCSc1nnc2scc(-c3ccccc3)n12)Nc1nc(-c2ccccc2)ns1
→ -0.7	-0.015
> O=c1oc2ccccc2n1S(=O)(=O)c1c(F)c(F)c(F)c(F)c1F
→ -0.3	0.15
> CCN1C(=O)/C(=C/c2c(N3CCCCC3)nc3ccccn3c2=O)SC1=S
→ 1.1	0.43
> COc1ccc(N2C(=O)C3CCC(C)(C2=O)C3(C)C)cc1 (configuration not stated)
→ ·	0.38
> CC(C)C(=O)NC(C)C(c1cccs1)N1CCN(C)CC1 (configuration not stated)
→ 0.3	-0.4
> O=C(COC(=O)C12CC3CC(CC(Br)(C3)C1)C2)Nc1ccccc1
→ 1.45	0.25
> CCOc1cc(CNc2ccc3c(c2)CCC3)ccc1O
→ -0.3	-0.025
> CCCN1CN(Cc2ccccc2)CC2=C1CC(C)(C)CC2=O
→ 1.25	-0.565
> S=c1[nH]nc(CNc2cccc(Cl)c2)o1
→ -1.45	·
> O=C(O)c1ccc(N=Nc2c(O)[nH]c(=O)[nH]c2=O)cc1
→ 2.4	-0.66
> CCC(C)(C)C1CCc2oc3ccc(NS(=O)(=O)c4ccc(C)cc4)cc3c2C1 (configuration not stated)
→ ·	-0.305
> CC(=O)n1c2ccc(C)cc2c2nc3ccccc3nc21
→ 2.45	13.9
> CCOC(=O)c1cccc(NC(=O)c2ccccc2Cl)c1
→ -0.3	-1.86
> C=CCn1c(SCC(=O)Nc2ccc(C)cc2)nc2sc3c(c2c1=O)CCC3
→ ·	-0.41
> O=C1CCCS(=O)(=O)c2ccccc21
→ 3.4	-0.595
> Cn1cccc1/C=C/C(=O)Nc1ccc2c(c1)CCC2
→ -0.35	·
> COc1ccc(C2=NN(C(=O)CSc3nnc(CNC(=O)c4ccco4)n3C)C(c3ccc(C)cc3)C2)cc1 (configuration not stated)
→ ·	0.11
> N#CC(C(=O)C1CCCCC1)c1nc2ccccc2[nH]1 (configuration not stated)
→ 0	0.055
> CCOc1ccc(C(=O)/C=C(/Nc2cccc(C)c2)C(=O)O)cc1
→ -0.35	0.875
> CC(C)(C)C(=O)Cn1nc(Cl)nc1Cl
→ 0.2	·
> O=C(NCc1ccco1)[C@H](Cc1ccccc1)N1Cc2ccccc2C1=O
→ -0.05	-0.045
> CC1CCC2C(C1)Nc1c(C(=O)O)cccc1C2(C)C (configuration not stated)
→ -0.8	·
> O=C(CSc1ccc(Br)cc1)Nc1ccc(S(=O)(=O)NCc2ccco2)cc1
→ 0.35	·
> O=C(Nc1ccc(N2CCCCC2)cc1)Nc1cccc(Cl)c1
→ 0.4	0.71
> CCC1(CC)OC(c2ccc(NC(C)=O)cc2)Nc2ccccc21 (configuration not stated)
→ 1.95	0.52
> COc1cc2c(cc1OC)C(C(=O)NCC1CCCO1)C(c1cccnc1)N(C)C2=O (configuration not stated)
→ -0.8	-0.09
> Cc1cc(C)nc(SCc2nc3ccccc3c(=O)n2-c2ccc(C(F)(F)F)cc2)n1
→ 1.6	0.895
> COC(=O)c1cn[nH]c1NC(=O)CSc1nc2[nH]ncc2c(=O)n1-c1ccc(Cl)cc1Cl
→ ·	0.075
> c1ccc(-c2nc(CN3CCNCC3)co2)cc1
→ -0.3	·
> COC(=O)c1cc(N2C(=O)C3C4c5ccccc5C(C)(c5ccccc54)C3C2=O)ccc1Cl (configuration not stated)
→ ·	-0.28
> Cc1nc2cc(NC(=O)COc3ccccc3C#N)ccc2n1-c1ccccc1
→ -0.3	·

Two records drawn at random from the list so far:
Value order – AID504770	Ba CapD inh
> c1ccc(-c2nc(CN3CCNCC3)co2)cc1
→ -0.3	·
> CC1CCC2C(C1)Nc1c(C(=O)O)cccc1C2(C)C (configuration not stated)
→ -0.8	·

Next records.
Value order – AID504770	Ba CapD inh
> N#CCCSc1nnc(-c2ccncc2)n1-c1ccccc1
→ ·	-0.055
> NC(=O)C(Cc1c[nH]c2ccccc12)NC(=O)OCc1ccc(Cl)cc1[N+](=O)[O-] (configuration not stated)
→ ·	-1.17
> CCn1c(SC)nnc1C1CCN(S(=O)(=O)c2ccc(OC)cc2)CC1
→ ·	-0.705
> COc1ccc(N2CC(C(=O)OCCN(C)C3=NS(=O)(=O)c4ccccc43)CC2=O)cc1 (configuration not stated)
→ ·	0.42
> Cc1onc(-c2c(F)cccc2Cl)c1-c1nc(-c2ccccc2)no1
→ -1.05	0.355
> Fc1ccc(-c2csc(NCC3CCCO3)n2)cc1 (configuration not stated)
→ 0	0.7
> FC(F)(F)c1ccccc1NC(=S)N1CCCC1
→ -0.7	0.055
> CS(=O)(=O)c1ccc(/C=C/c2ccc(Cl)cc2)cc1
→ 0.45	1.45
> CCN1CCN(CCC(=O)Nc2ccc3c(c2)CCC3)CC1
→ -0.55	·
> CC1SC2(C(=O)Nc3ccccc32)N(c2cccc(Cl)c2)C1=O (configuration not stated)
→ ·	-0.86
> c1ccc(CN2CCC(c3nc(-c4cnccn4)no3)CC2)cc1
→ ·	-0.28
> CCOC(=O)C1=C(N)n2c(s/c(=C\c3cccc(Br)c3)c2=O)=C(C(=O)OCC)C1c1cccc(Br)c1 (configuration not stated)
→ ·	-0.515
> N#CC1=C(N)Oc2n[nH]c(-c3ccc(Br)cc3)c2C12C(=O)N(CC(=O)O)c1ccccc12 (configuration not stated)
→ ·	0.14
> COc1cccc(/C=C/C(=O)C2C(=O)c3ccccc3C2=O)c1
→ 0.25	0.1
> CC12CN3CC(C)(CN(C1)C3(C)CSc1c[nH]c3ccccc13)C2=O (configuration not stated)
→ -0.15	·
> CCC1=NP(N2CCN(C)CC2)(N2CCN(C)CC2)=NC(N2CCN(C)CC2)=C1C
→ -0.05	·
> CCSc1nnc(NC(=O)CSc2nnc(CNC(=O)c3cccs3)n2-c2ccc(Cl)c(Cl)c2)s1
→ ·	-0.015
> Cc1ccc(N2C(=O)CC(Sc3nnc(C)s3)C2=O)cc1 (configuration not stated)
→ 0.45	-0.265
> C=CCOc1ccc(C2C(C(=O)OCC)=C(C)N=c3s/c(=C/c4ccc(C)o4)c(=O)n32)cc1OCC (configuration not stated)
→ ·	-0.61
> COc1cccc(=O)c2c(C)n(CC(=O)c3ccccc3)c(C)c12
→ 1.6	-0.49
> CC(Sc1ccccc1)C(=O)N1CCN(c2ccccc2F)CC1 (configuration not stated)
→ 0.05	·
> CC(=O)NC1N=C(C)N(c2ccccc2)C1=O (configuration not stated)
→ -0.35	·
> COc1ccc(-c2cc(=O)[nH][nH]2)cc1
→ 1.25	0.085
> CCOCCC(=O)N1CCCCC1CC (configuration not stated)
→ 0.9	-0.555
> Cc1ccc(-n2nc3c(c2NC(=O)COc2ccc(Cl)cc2Cl)CS(=O)C3)cc1 (configuration not stated)
→ -1.3	·
> Cc1ccc(C2CC(C(F)(F)F)n3nc(C(=O)Nc4cccnc4)cc3N2)cc1 (configuration not stated)
→ ·	-0.08
> CC1CCCCN1C(=O)CCn1cnc2onc(-c3ccc(F)cc3)c2c1=O (configuration not stated)
→ -0.2	-1.27
> CSc1ccc(C2OC(=O)C(=Cc3ccc(C)o3)C(=O)O2)cc1 (configuration not stated)
→ 0.3	-0.12
> O=C(O)c1ccc(COc2ccc3c(c2)CCC3)o1
→ -1.2	-0.555
> Nc1ccccc1C(=O)N1CCC(c2nc(-c3ccncc3)no2)CC1
→ ·	0.535
> CC1CCN(C(=O)CSc2nc3cc4c(cc3cc2C#N)OCO4)CC1
→ 2.2	·
> Cc1ccc(N2C(=O)c3ccccc3C2Nc2ccc(S(=O)(=O)N3CCCCCC3)cc2)nc1 (configuration not stated)
→ -0.15	0.355
> CC(=Nc1ccc(N(C)C)cc1)C1=C(O)c2ccccc2C1=O
→ -0.2	0.15
> CCN1C2=C(C#N)C(=O)CCCN2C(=O)c2ccccc21
→ -0.35	·
> O=C(OCC(=O)N1CCC(Cc2ccccc2)CC1)c1ccc(O)cc1
→ 0.25	·
> NC(=O)CSc1ccc2ccccc2c1
→ -1.1	0.72
> O=C1NC(=O)N(c2ccc(F)cc2)C(=O)/C1=C/c1ccc(O)c(Br)c1
→ ·	-1.96
> COc1cc(C(=O)Oc2ccc3c(c2)OCO3)ccc1OCc1c(C)noc1C
→ -0.1	·
> c1ccc2[nH]c(SCSc3nc4ccccc4[nH]3)nc2c1
→ 0.5&0.2	-0.24&0.02
> N#Cc1ccc(C=Nc2cccc(C#N)c2)cc1
→ 0.4	0.885
> COc1cc(Br)c(/C=N/NC(=O)Cc2c[nH]c3ccccc23)cc1OC
→ ·	0.105
> CCc1nc(-c2ccc(OC)c(OC)c2)cc2cc(OC)c(OC)cc12
→ -0.1	4.86
> COc1c(Cl)cc(Cl)cc1C1N(Cc2ccccc2)CCN1Cc1ccccc1
→ ·	-0.54
> CCn1c(NC(=O)c2cccs2)nc2ccccc21
→ ·	1.91
> Cc1cc(-n2c(SCC(=O)Nc3cccc(C(F)(F)F)c3)nc3n[nH]c(C)c3c2=N)ccc1Cl
→ ·	-0.38
> CC(Sc1ncnc2sc3c(c12)CCC3)C(N)=O (configuration not stated)
→ -0.05	·
> N#CCc1ccc(OC(=O)c2ccncc2)cc1
→ -0.2	-0.61
> Cn1c(=O)c2c(nc(NCCc3ccccc3)n2Cc2c(F)cccc2Cl)n(C)c1=O
→ ·	-0.18
> O=C(NC1CCCCC1)c1cc2c(=O)[nH]c3ccccc3c2s1
→ ·	61.3
> CCCc1cc(OC(=O)c2cccnc2Oc2ccccc2)n(C)n1
→ -0.05	-0.205
> CCn1nnnc1SCCSc1nnnn1CC
→ -0.55	-0.55
> CCc1nc2cc(Cl)c(Cl)cc2nc1CC
→ -2	0.41
> O=C1C2=C(NC(=S)NC2c2ccccc2)c2ccccc21 (configuration not stated)
→ -0.8	-0.58
> Cn1c(Cc2ccsc2)nnc1Sc1nc2ccc(Cl)cc2s1
→ -1	-0.045
> O=C(NNC(=O)c1ccccc1NC(=O)c1c(F)cccc1F)OCCc1ccccc1Br
→ ·	-0.22
> CC(Nc1nc2ccccc2n1C)c1cc(Cl)ccc1O (configuration not stated)
→ 1.7	-0.24
> COc1cc(CCN)cc(OC)c1OC
→ ·	0.49
> CC(C)C(c1nnnn1Cc1ccccc1)N1CCC(C(N)=O)CC1 (configuration not stated)
→ -0.6	·
> CC(=O)NC(C)C1CC2CCC1C2 (configuration not stated)
→ -0.8	·
> CCOc1ccc(OCC)c(CC(C#N)C(=O)OC)c1 (configuration not stated)
→ 0.75	0.26
> O=C(Cn1c2ccccc2c(=O)c2cc(Cl)ccc21)N1CCN(c2ccc([N+](=O)[O-])cc2)CC1
→ ·	0.505
> CCn1c(C)nc2cc(Cl)ccc21
→ -0.5	·
> c1ccc(-n2c(SCCN3CCOCC3)nnc2-c2ccncc2)cc1
→ -0.6	·

An excerpt from above in order of molecular weight, high to low:
Value order – AID504770	Ba CapD inh
> COc1cc(C(=O)Oc2ccc3c(c2)OCO3)ccc1OCc1c(C)noc1C
→ -0.1	·
> c1ccc(-n2c(SCCN3CCOCC3)nnc2-c2ccncc2)cc1
→ -0.6	·
> O=C(NC1CCCCC1)c1cc2c(=O)[nH]c3ccccc3c2s1
→ ·	61.3
> COc1cc(CCN)cc(OC)c1OC
→ ·	0.49

Screening results deposited in PubChem by ICCB-Longwood Screening Facility, Harvard Medical School.
